Tgondii IFNg: T. gondii growth inhibition under IFN-gamma; Toxoplasma gondii growth in IFN-gamma-treated host cells; hits give low values; reference of the scale not given here; activity change, negative = inhibition, %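 (about 20 µM by stock and volumes)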; 69,000 compounds, 3.8% hits; AID 1259416;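 active means below -70%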;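 further: host cells are HeLa cells infected with Toxoplasma gondii; parasite growth read as luciferase light; one replicate is shown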
Active calls of the source: *; & = joins results of further samples.

SMILES	Tgondii IFNg
Cn1cccc1C(=O)N1CCC2(CC1)CN(S(C)(=O)=O)c1ccccc12	42.3
Cc1cc2[nH]c(=O)[nH]c2cc1S(=O)(=O)N1CCCCC1	-41.3
COc1cc(N2CCC3(CC2)CN(C)C(=O)CO3)ncn1	4.4
Cc1cc(C)c(C(=O)N(C)Cc2nc3ccc(Cl)cc3[nH]2)c(=O)[nH]1	-1.0
Cc1ccc(C)c(-c2coc(-c3ccc(NC(=O)NC4CCCC4)cc3)n2)c1	-36.3
Cc1cc(OC(=O)c2ccco2)nc(SCc2c(Cl)cccc2Cl)n1	22.4
C[C@H](NC(=O)C[C@@H]1CC[C@@H]2[C@H](COC[C@@H](O)CN2C(=O)Nc2cccc(Cl)c2)O1)c1ccccc1	-66.8
OCc1ccc(CN2CCC(n3cc(-c4cccnc4)nn3)CC2)o1	3.7
Cc1cccc(CN2CC3(CCC2=O)CCN(C(=O)C2CC2)CC3)n1	0.3
Cc1ccc2[nH]c(=O)c(-c3ccccc3)c(O)c2c1	2.3
O=C(Nc1cccc(N2CCCCS2(=O)=O)c1)c1cc(-c2cccc(F)c2)no1	-7.1
Cc1ccsc1S(=O)(=O)N1CCOC2(CNCCOC2)C1 (stereo unspecified)	6.7
O=C(O)c1ccc(-c2cccc(CN3CCOCC3)c2)o1	-44.7
COc1ncccc1C(=O)N1CCOC(c2ccc(Cl)c(Cl)c2)C1 (stereo unspecified)	-16.9
C[C@@H](O)C#Cc1ccc([C@H]2[C@@H](CO)N3CCCCN(C(=O)c4ccc5c(c4)OCO5)C[C@@H]23)cc1	10.4
Nc1ccc(-n2nnnc2-c2ccco2)cc1	3.5
COc1ccccc1C(=O)Nc1ccc2c(c1)C(=O)N(C)C[C@@H](OC)[C@H](C)CN(C(C)=O)[C@H](C)CO2	14.1
CCn1cc(-c2cccnc2OC)cn1	-13.2
NC(=O)c1c(-c2ccncc2)csc1N	-40.4
CN(C)C(CNC(=O)Cc1ccc2nc(N)sc2c1)c1cccc(Cl)c1 (stereo unspecified)	3.4
CCOc1cccc(C2c3[nH]c4ccccc4c3CCN2C(=O)c2ccco2)c1 (stereo unspecified)	-109.4*
O=C1CCC(NCc2ccc(C(=O)N3CCCC3)cc2)CCN1CC1CC1 (stereo unspecified)	4.1
CCCC(=O)NC1CC2(CCN(Cc3ccco3)CC2)Oc2ccccc21 (stereo unspecified)	-2.9
C[C@H](CO)N1C[C@H](C)[C@@H](CN(C)C(=O)Nc2ccc(C(F)(F)F)cc2)Oc2ccc(NC(=O)C3CCCCC3)cc2C1=O	-29.2
CCN1c2cc(C)ccc2-n2cccc2C12CCN(C(=O)Nc1ccc(OC)cc1OC)CC2	-72.5*
CCCS(=O)(=O)N1CCC2(CC1)CC(CC(=O)NCC1CC1)c1ccccc12 (stereo unspecified)	78.5
CCCCCCCCCCCCCCCC(=O)C(F)(F)F	21.5
C=CCOCC12CCCOC1CCN(C(=O)c1ccc3c(c1)OCO3)C2 (stereo unspecified)	-52.3
CN(C)CC(=O)N1CC[C@@H]2OCC[C@@]2(COCc2cccnc2)C1	-0.8
COCC1(CNC(=O)CC(=O)Nc2ccc(C)cc2)CC1	23.0
CNS(=O)(=O)c1ccc2c3c(cccc13)C(=O)N2	-10.0
CCCNC(=O)C[C@H]1CC[C@H]2[C@H](COc3ccc(NC(=O)CC)cc3C(=O)N2C)O1	8.1
CSc1ccc(S(=O)(=O)Nc2ccc(Cc3ccncc3)cc2)cc1	-42.7
COc1ccc2c3c([nH]c2c1)[C@H](CO)N(C(C)=O)CC31CCN(S(=O)(=O)c2ccccc2)CC1	95.2
COC(=O)c1c(NCC(C)O)c2cccc(Cl)c2[nH]c1=O (stereo unspecified)	28.9
O=c1c2ccccc2cc(Br)c2sccc12	6.3
CO[C@@H](CN(C)Cc1nccs1)[C@@H](C)CN([C@H](C)CO)S(=O)(=O)c1ccc(F)cc1	-6.6
O=C(C[C@@H]1CC[C@@H]2[C@H](COC[C@H](O)CN2C(=O)c2ccc(F)cc2)O1)N1CCCCC1	-27.1
Cc1cc(C(F)(F)F)nc(CCNC(=O)[C@@H]2C[C@@H](N)CN2)n1	2.9
Cc1n[nH]c2nc(C(=O)O)c(CCO)c(=O)n12	8.6

Given as a markdown table: entries from further up
| SMILES | Tgondii IFNg |
| --- | --- |
| Cc1n[nH]c2nc(C(=O)O)c(CCO)c(=O)n12 | 8.6 |
| CCCNC(=O)C[C@H]1CC[C@H]2[C@H](COc3ccc(NC(=O)CC)cc3C(=O)N2C)O1 | 8.1 |

Additional structures follow.
SMILES	Tgondii IFNg
NS(=O)(=O)C#Cc1ccccc1	7.5
Cc1ccc(C(=O)Nc2ccc(N3CCC(N(C)Cc4cn(C)nc4C)CC3)cc2)c(C)c1	9.2
CC(C)(C)[S@](=O)N1Cc2cc(C(=O)NCCN3CCCC3)nc(-c3cccc(-c4ccc(C#N)cc4)c3)c2[C@@H]1CCO	-51.0
COc1ccc(-c2ccccc2[C@H]2[C@@H](C#N)N(C(=O)NC(C)C)[C@H]2CO)cc1	-12.0
O=C(c1ccc2c(c1)OCO2)N1CCC(n2cc(-c3ccccn3)nn2)CC1	29.7
Cc1oc(-c2cccs2)nc1CN1CCNC(C(=O)N2CCCC2)C1 (stereo unspecified)	-43.9
Cc1cc(CNC(=O)c2ccc(OC3CCN(S(C)(=O)=O)CC3)c(Cl)c2)nn1C	7.0
COc1ccc(-c2nc(Cn3c(=O)c4c(C)cc(C)nc4n(-c4ccccc4)c3=O)c(C)o2)cc1	1.9
COc1cc(C(=O)c2ccccc2C#N)cc(OC)c1OC	-63.7
Cc1oc(C2CCN(S(=O)(=O)c3ccc(C(C)C)cc3)CC2)nc1C(=O)N(C)C	11.1
C=CCn1cc(F)c(=O)n(CC=C)c1=O	0.5
O=C(CSc1ncccn1)NCC1Cc2cc(Cl)cc(-c3ccc4[nH]ccc4c3)c2O1 (stereo unspecified)	-5.6
CCO[C@H]1CC2CC1CN2C(=O)c1cccc(C#N)c1 (stereo partly specified)	64.5
O=C(c1ccncc1)N1CCc2c([nH]c3ccccc23)C1c1ccccc1 (stereo unspecified)	337.0
O=C(Nc1cc(F)ccc1F)N1CCCCN2[C@H](CO)[C@H](c3ccc(C4=CCCCC4)cc3)[C@@H]2C1	-45.0
O=C(NCc1cccc(F)c1)c1nc(CS(=O)(=O)c2ccc(Cl)cc2)no1	-86.9*
O=C(NCc1cnn2cccnc12)c1cccc(CC2CCNCC2)c1	-0.4
CCc1ccc(NC(=O)Cn2c(=O)cc(C(=O)N3CCCC3)c3ccccc32)cc1	-47.5
O=C(c1ccc2n[nH]nc2c1)N1CCC(c2[nH]ncc2Cc2ccccc2)CC1	-26.7
O=C(Cn1cc(NC(=O)c2ccccn2)cn1)Nc1ccccc1CN1CCCC1	5.4
CCS(=O)(=O)N1CCC2(CCC(C(=O)NCC3CC3)O2)CC1 (stereo unspecified)	-6.8
CCN1C(=O)CCC12CCCN(S(=O)(=O)c1cccs1)CC2 (stereo unspecified)	-9.7
O=C(COc1ccccc1Cl)Nc1ccc(Oc2ccc(F)cc2)c(C(F)(F)F)c1	-7.0
COc1ccc2[nH]c(C(=O)c3ccccc3)cc2c1	-59.9
CCS(=O)(=O)N1CC2(CN(C(=O)c3ccc(F)cc3)[C@@H](CO)c3c2c2ccc(OC)cc2n3C)C1	62.5
Cc1cccnc1[C@H](C)NC(=O)CNS(=O)(=O)c1cccs1	4.2
Cc1cccc(-c2ccc([C@H]3[C@H]4CN(C(=O)c5ccc6c(c5)OCO6)CC(=O)N4[C@H]3CO)cc2)c1	-46.2
CN1CCN(S(=O)(=O)c2cccs2)CC1	-69.7
Cc1nc2ncccn2c1C(=O)N1CCCC(CO)(CCc2ccccc2)C1 (stereo unspecified)	-5.0
Cc1nc(CCNC(=O)C2=NNC(=O)CC2)nc2c1CCCC2	20.9
CCOC(=O)c1cnn2c1nc(Sc1cccc(OC)c1)c1ccccc12	-22.4
Cc1ccc(F)c(-c2ncccc2NC(=O)C(C)C)c1	55.0
Cc1noc(C)c1C1CCCN1C(=O)c1cnn2ccn(C)c12 (stereo unspecified)	-1.8
CCc1c(C)sc2ncnc(-c3ccc(S(C)(=O)=O)cc3)c12	3.3
CCN1CCC2(CC1)OC(=O)C(C)=C2C(=O)Nc1ccc(OC)cc1	114.8
CC(C)(C)c1ccc(C(=O)Nc2ccc3oc(-c4ccccc4)nc3c2)cc1	-84.1*
CCn1nc(C)c(C(=O)N2C[C@@H]3C4CCC(CC4)[C@@H]3C2)c1C	0.3
O=C(Nc1cccc(N2CCCCS2(=O)=O)c1)c1ccc(-n2cccn2)nc1	6.3
COCCNC(=O)c1nc(-c2cccc(F)c2)n2c1CCCCC2	94.2
O=C(Cn1nc(-c2ccc(F)cc2)ccc1=O)NCC1OCCc2ccccc21 (stereo unspecified)	0.1
CC(C)[C@H]1COCc2cnnn2CCC[C@@H](C)C(=O)N1	2.0
COc1cc2c(cc1OC)C1Cc3ccc(OC)c(OC)c3CN1CC2 (stereo unspecified)	9.0
O=C(Cn1c(=O)cc(C(=O)N2CCOCC2)c2ccccc21)Nc1ccc(F)cc1F	15.0
CC1=C(/C=C/C(=C/C=C/C(C)=C/C(=O)O)c2ccc(C)cc2)C(C)(C)CCC1	39.7
O=C(c1ccoc1)N1CCn2cc(Cn3cncn3)nc2C1	-41.8
CC(C)CN1CC(C(=O)NC2CCC(n3cnnc3)CC2)CC1=O (stereo unspecified)	0.6
Cc1ccsc1C(=O)N1CCCn2cnc(CN3CCCC3=O)c2C1	24.1
Cc1ccc(C2(O)CCN(C(=O)c3cccnc3N3CCOCC3)CC2)nc1	4.5
Cc1ncc2c(c1CNC(=O)c1ccccc1C1CCNC1)CCNC2 (stereo unspecified)	-4.0
CN=C(NC)NCc1ccc(OC)cc1	9.0
CCOc1ccc(S(=O)(=O)N2CCC(C(=O)NCCc3csc(-c4ccccc4)n3)CC2)cc1	-17.0
CS(=O)(=O)N1CCOC2(CCN(c3nccs3)CC2)c2ccccc21	3.7
Cc1ccc(CC(CC(=O)NCCc2ccc3c(c2)OCO3)C(=O)O)cc1 (stereo unspecified)	-2.0
O=C(NCc1nc(-c2ccncc2)n[nH]1)Nc1ccccc1C(F)(F)F	-20.3
COc1ccc2c3c([nH]c2c1)[C@@H](CO)N(Cc1ccccc1)CC31CCN(Cc2cncnc2)CC1	195.5
O=C1CC2(CCCC2)CC(=O)N1CCNCC1COc2ccccc2O1 (stereo unspecified)	9.5&13.2
CCC(=O)N1[C@H](CO)[C@@H](c2ccc(/C=C/c3ccccc3)cc2)C12CN(S(C)(=O)=O)C2	-16.4
CC1CCN(c2ccc(C(C)NC(=O)c3ccc4oc(=O)n(C)c4c3)cc2)CC1 (stereo unspecified)	-5.3
C[C@H](NC(=O)C[C@@H]1CC[C@@H]2[C@H](COC[C@H](O)CN2C(=O)Nc2cccc(Cl)c2)O1)c1ccccc1	-41.7
CCC(CC)[C@H](NC(C)=O)[C@@H]1[C@H](O)[C@@H](C(=O)O)C[C@H]1N=C(N)N	26.5

Part of the list above in another layout.
mol | Tgondii IFNg
COc1cc2c(cc1OC)C1Cc3ccc(OC)c(OC)c3CN1CC2 (stereo unspecified) | 9.0
O=C(NCc1nc(-c2ccncc2)n[nH]1)Nc1ccccc1C(F)(F)F | -20.3
O=C(c1ccoc1)N1CCn2cc(Cn3cncn3)nc2C1 | -41.8
CCC(=O)N1[C@H](CO)[C@@H](c2ccc(/C=C/c3ccccc3)cc2)C12CN(S(C)(=O)=O)C2 | -16.4
COc1ccc2c3c([nH]c2c1)[C@@H](CO)N(Cc1ccccc1)CC31CCN(Cc2cncnc2)CC1 | 195.5

Next part.
SMILES	Tgondii IFNg
C[C@@H](NC(=O)C[C@H]1CC[C@@H]2[C@H](COC[C@H](O)CN2Cc2ccc(C(F)(F)F)cc2)O1)c1ccccc1	-4.8
CNC(=O)CN1CCCn2cnc(COCC(=O)N(C)C)c2C1	1.1
CCc1ccccc1C(=O)N1CCC(Cc2cccc(C(=O)O)c2)CC1	2.6
O=C(C[C@H]1CC[C@@H]2[C@H](COC[C@@H](O)CN2Cc2cc(F)cc(F)c2)O1)Nc1nccs1	-45.3
OC[C@@H]1[C@@H](c2ccccc2)C2(CN(Cc3cccnc3)C2)N1Cc1ccncc1	60.9
O=C(NCc1ccco1)c1c(O)c2cccnc2n(-c2cccc(F)c2)c1=O	182.5
COc1cccc(C(=O)Nc2ccc(-c3nc(Cn4nc(C)cc4C)c(C)o3)cc2)c1	-62.4
COc1cccc(S(=O)(=O)N(C)C[C@H]2OCc3ccccc3-c3c(n(C)c4ccccc34)C(=O)N([C@H](C)CO)C[C@@H]2C)c1	-66.9
O=C(Nc1ccccc1Br)N1CCC2(CC1)Nc1cc(F)ccc1-n1cccc12	90.7
CN1CCN(Cc2ccccc2Oc2ncc(C(F)(F)F)cc2Cl)CC1	3.8
Cc1cc(C)nc(Nc2cccc(C3CCCN3C(=O)CCc3c[nH]c4ccccc34)n2)n1 (stereo unspecified)	17.3
CC(C)Oc1ccc(NC(=O)c2c3c(N4CCN(C)CC4)ncnc3n3ccccc23)cc1	-7.8
CCCN(CC#Cc1ccccc1)C(=O)c1c(Cl)cnn1CC	4.9
COc1ccc(-n2c(=O)c(C(=O)Nc3ccc(F)cc3Cl)c(O)c3cccnc32)cc1	42.8
Cc1oc(-c2ccccc2)nc1Cn1nnc(-c2nc(-c3ccc(F)c(Br)c3)no2)c1C	9.2
C[C@H]1CN([C@@H](C)CO)C(=O)c2ccccc2-c2ccccc2CO[C@@H]1CN(C)S(=O)(=O)c1cn(C)cn1	6.2
CC(C)CNC(=O)C1Cn2ccnc2C2(CCN(Cc3nccs3)CC2)O1 (stereo unspecified)	427.8
CO[C@H]1CN(C(=O)c2ccc(-c3nnn(C)n3)cc2)CC[C@H]1N	-2.0
Cc1ccc(NC(=O)c2nc3ccccc3n(C)c2=O)c(-c2cc(C)[nH]n2)c1	-16.6

Molecules above containing a cyano group, in the order listed:
SMILES	Tgondii IFNg
CC(C)(C)[S@](=O)N1Cc2cc(C(=O)NCCN3CCCC3)nc(-c3cccc(-c4ccc(C#N)cc4)c3)c2[C@@H]1CCO	-51.0
COc1ccc(-c2ccccc2[C@H]2[C@@H](C#N)N(C(=O)NC(C)C)[C@H]2CO)cc1	-12.0
COc1cc(C(=O)c2ccccc2C#N)cc(OC)c1OC	-63.7
CCO[C@H]1CC2CC1CN2C(=O)c1cccc(C#N)c1 (stereo partly specified)	64.5

The list is partial, so the mix of outcomes need not match the whole.
